Rango release inh = qHTS Assay for Inhibitors of RanGTP induced Rango (Ran-regulated importin-beta cargo) - Importin beta complex dissociation | Potency, µM (highest dose often 46.1 µM), for inactives: top-dose activity change, negative = inhibition | Biochemical FRET Rango-importin beta, RanGTP-induced dissociation | Snurportin-1 (Homo sapiens) + GTP-binding nuclear protein Ran (Homo sapiens) + Importin … | hit rate 0.071% among 340,000; active means falling FRET ratio curve, often poorly fitted, with flat reads before Ran was added; inconclusive means other falling curves, or compound fluorescence or quenching; inactive means flat or rising ratio curve;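 further: potency means the concentration at half of the fitted maximal effect; % of control where 0% means no effect; nearly all actives have a fitted effect of over 45% in size; -100% = wells without RanGTP and RCC1; the record marks most hits as doubtful in a second field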
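FRET read at 45 min, room temperature: inhibitors block the CFP/YFP signal rise when RanGTP (0.6 uM Ran, 2 mM GTP, 0.2 uM RCC1) frees Rango (0.1 uM) from importin beta (0.25 uM). Pre-read after 5 min compound exposure flags interference.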
GLA inh pH 4.5 = qHTS Assay for Inhibitors of Human alpha-Galactosidase at pH 4.5; Alpha-galactosidase A (Homo sapiens), P06280; purified enzyme, 4-MU-alpha-Gal fluorescence, pH 4.5; AID 1467, 2008; 230,000 tested, under 10 active; activity change, negative = inhibition, % at 105 µM; inconclusive = small, poorly fitted or top-dose-only inhibition, or a rising curve; inactive = flat fitted curve, though single readings scatter; no compound was filed as active;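 further: 0% = full activity with enzyme and -100% = basal without enzyme; dose as in the result columns while the protocol names 77 µM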
miR-21 FLuc = qHTS Assay for Modulators of miRNAs and/orActivators of miR-21; HeLa miR-21 FLuc reporter, luciferase, 48 h; Potency, µM (doses to about 38.3 µM), for inactives: at the highest dose reporter change, positive = more light; 340,000 tested, under 10 active; active = well fitted rising curve with a large enough effect; inconclusive = small, poorly fitted or top-dose-only effect; inactive = no such curve, though single readings can be large or run the other way;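 further: % of control where 0% means no effect; miR-21 action dims this reporter so a rising signal means less miR-21 action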
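HeLa cells stably expressing CMV-driven firefly luciferase with a downstream miR-21 binding sequence, endogenously expressing miR-21, were treated with titrations (up to about 40uM final) for 48 hours at 37 degree Celsius. Luciferase luminescence was read after lysis.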
Rango-impB inh = qHTS Assay for Inhibitors of Rango (Ran-regulated importin-beta cargo) - Importin beta complex formation | Importin subunit beta-1 (Homo sapiens), Q14974 | Rango CFP/YFP FRET sensor + importin beta, 45 min | Potency, µM (series often up to 92.2 µM), without a hit: top-dose inhibition of complex formation | hit rate 0.031% among 340,000; active = rising FRET ratio curve, often small or poorly fitted; inconclusive = mostly compound fluorescence or quenching in the first reads; inactive = flat curves in all reads;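 further: potency means the concentration at half of the fitted maximal effect; 0% = DMSO wells and 100% = buffer wells lacking importin beta; nearly all actives have a fitted effect of over 15% in size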
Target sequence (Q14974 whole entry, looked up): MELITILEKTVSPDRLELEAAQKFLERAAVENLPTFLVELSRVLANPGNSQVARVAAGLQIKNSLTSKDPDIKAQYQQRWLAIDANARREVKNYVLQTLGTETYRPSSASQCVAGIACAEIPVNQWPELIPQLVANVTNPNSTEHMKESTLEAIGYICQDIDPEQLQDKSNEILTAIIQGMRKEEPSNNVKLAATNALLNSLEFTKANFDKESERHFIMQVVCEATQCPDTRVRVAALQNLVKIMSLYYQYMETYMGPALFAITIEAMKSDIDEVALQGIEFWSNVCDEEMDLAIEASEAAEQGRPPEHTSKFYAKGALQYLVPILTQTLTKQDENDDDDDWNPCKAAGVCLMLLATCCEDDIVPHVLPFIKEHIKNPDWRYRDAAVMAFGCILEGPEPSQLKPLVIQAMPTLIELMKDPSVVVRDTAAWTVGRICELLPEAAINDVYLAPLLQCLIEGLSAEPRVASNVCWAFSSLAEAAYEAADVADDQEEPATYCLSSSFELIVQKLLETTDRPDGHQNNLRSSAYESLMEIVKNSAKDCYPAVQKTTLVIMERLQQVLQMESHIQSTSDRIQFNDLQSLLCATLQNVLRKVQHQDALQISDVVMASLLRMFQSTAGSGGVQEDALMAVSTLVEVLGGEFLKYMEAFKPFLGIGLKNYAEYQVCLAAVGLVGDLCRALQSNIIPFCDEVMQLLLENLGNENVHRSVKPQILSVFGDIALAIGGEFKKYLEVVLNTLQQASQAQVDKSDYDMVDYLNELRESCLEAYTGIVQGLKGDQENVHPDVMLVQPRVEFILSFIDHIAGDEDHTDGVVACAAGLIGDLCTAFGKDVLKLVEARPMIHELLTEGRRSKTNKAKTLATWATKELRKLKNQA
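Inhibition scored from the CFP 486 nm/YFP 530 nm FRET ratio 45 min after adding 0.125 microM importin beta to 50 nM Rango biosensor preincubated 5 min with compound (room temperature, PBS with DTT, Tween-20, BSA). No-importin wells as positive control.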
* = called active by the depositor; ? = inconclusive; . = no result given; [ ] = another dose, or the depositor's remark. The list is partial (hit frequency here may not be typical).

SMILES	Rango release inh	GLA inh pH 4.5	miR-21 FLuc	Rango-impB inh
O=C1NC(c2ccccc2)CCC1(Cl)Cl (configuration not stated)	-7%	15	7%	-3.6%
CN(C)/C=C1\C(=O)N(c2ccc(Cl)c(Cl)c2)CS1(=O)=O	-18%	-17	-6%	-1.2%
Nn1cc(-c2ccccc2)nc1SCC(=O)Nc1cccc(S(N)(=O)=O)c1	-16%	11	-1%	2.5%
O=C(c1ccccc1)c1ccc2nc(N3CCN(C(=O)c4ccco4)CC3)c3nncn3c2c1	-7%	4	-6%	1.9%
Cc1ccc(Nc2nc(-c3sc(N)nc3C)cs2)cc1	-17%	.	-39%	?
CCCCn1c(N)c(N(CC(C)C)C(=O)C2CC(=O)N(c3ccc(CC)cc3)C2)c(=O)[nH]c1=O (configuration not stated)	1%	.	.	2.0%
Cn1c2ccccc2c2cc(/C=N/NC(=O)c3ccc(O)cc3O)ccc21	-4%	.	1%	-2.6%
Cc1cc(-c2ccccc2)n2ncnc2n1	-1%	6	4%	-3.6%
O=C(Nc1ccc(-c2cnco2)cc1)c1ccccc1	2%	-1	-49%	-1.5%
COC(=O)C1=C(C(=O)c2ccccc2)C(c2ccccc2)n2nnnc2N1 (configuration not stated)	-11%	-5	-2%	5.8%
O=C(CN1CCOCC1)NCc1cc([N+](=O)[O-])ccc1O	-5%	.	-4%	0.3%
CCN(CC)C(=O)C1CCC(CNS(=O)(=O)c2cccc3cccnc23)CC1 (configuration not stated)	-2%	-5	-9%	5.5%
CCCN1CCN(CCCNC(=O)CN2C(=O)c3cccnc3Oc3ccc(Cl)cc32)CC1	0%	.	-3%	-1.3%
O=C(CCC(=O)N1CCOCC1)Nc1nnc(C2CCCCC2)s1	0%	-1	-14%	3.0%
N#Cc1cccc(NC(=O)CN2C(=O)NC3(CCCCCC3)C2=O)c1	1%	.	.	-0.3%
O=C1CN(S(=O)(=O)c2cc(Cl)ccc2Cl)CCN1	-10%	-15	-9%	0.8%
CN1C(=O)C(CC(=O)NC2CCCCC2)SC1=Nc1ccccc1 (configuration not stated)	19%	-5	1%	-4.3%
CC(=O)Nc1ccc(Sc2ccc([N+](=O)[O-])o2)cc1	30%	.	.	-2.2%
O=C(c1cc(-c2cccc(Cl)c2)on1)N1CCCC1	28%	.	-75%	0.2%
CCCCCC(=O)Cc1cc(O)cc2c1C(=O)Oc1cc(O)c(C(=O)O)c(CCCCC)c1O2	-3%	4	12%	-2.1%
NC(=O)c1ccc2c(=O)n3c(-c4cccs4)csc3nc2c1	?	4	-47%	?
COc1cc(OC)c(OC)cc1/C=C1/Cc2ccccc2C1=O	?	.	-4%	?
N#Cc1c(-c2ccco2)c2c([nH]c1=S)CCCC2	-3%	-5	-2%	-1.0%
CCOc1ccc2nc(NC(=O)C34CC5CC(CC(NC(C)=O)(C5)C3)C4)sc2c1	3%	.	-15%	-4.1%
NC(=O)c1ncc(C(F)(F)F)cc1Oc1cccnc1	0%	3	1%	-0.9%

3 compounds out of the list, sorted by formula weight, highest first.
SMILES	Rango release inh	GLA inh pH 4.5	miR-21 FLuc	Rango-impB inh
NC(=O)c1ncc(C(F)(F)F)cc1Oc1cccnc1	0%	3	1%	-0.9%
O=C(c1cc(-c2cccc(Cl)c2)on1)N1CCCC1	28%	.	-75%	0.2%
Cc1cc(-c2ccccc2)n2ncnc2n1	-1%	6	4%	-3.6%

Further records.
SMILES	Rango release inh	GLA inh pH 4.5	miR-21 FLuc	Rango-impB inh
CCc1ccc(OC(C)C(=O)Nc2ccccc2C(=O)N2CCOCC2)cc1 (configuration not stated)	1%	.	2%	-0.5%
Cc1cc(C)cc(NC2=NCC(=O)N2Cc2ccccc2)c1	-1%	-2	-1%	0.9%
Cc1cc2nn(-c3cccc4ccccc34)nc2cc1N	-25%	4	-47%	?
O=C(O)CC(NC(=O)C12CC3CC(CC(C3)C1)C2)c1cccc(Cl)c1 (configuration not stated)	10%	.	-10%	-1.8%
CCOC(=O)c1ccc(NC(=O)CC2COc3ccccc3O2)cc1 (configuration not stated)	-3%	-9	-1%	2.1%
COc1ccc2c(c1)cc(C(=O)N[C@H](C(=O)N1CCC[C@H]1C(=O)O)C(C)C)n2C	-12%	.	-5%	0.9%
O=C(COC(=O)c1ccc2c(c1)S(=O)(=O)c1ccccc1C2=O)NC1CC1	9%	2	-1%	2.8%
Cc1ccn2cc(C34CC5CC(CC(C5)C3)C4)nc2c1	-8%	-4	-29%	1.1%
CCOC(=O)c1c(CSc2ccc(C)cc2)n(C)c2cc(Br)c(O)c(CN(C)C)c12	3%	-4	-2%	1.9%
CCN1C(=O)/C(=C2/Sc3ccccc3N2CC)S/C1=N\c1ncn[nH]1	?	3	-19%	?
Cc1cc(C)n(C(=O)CCNC(=O)c2ccccc2Br)n1	19%	-1	-3%	0.1%
COc1cc([C@H]2[C@@H]3CCCC[C@]3(O)CCN2CC(=O)Nc2ccc(C)cc2C)ccc1O	-5%	-3	4%	1.8%
COc1ccc(C2c3[nH]c4ccccc4c3CCN2Cc2cccn2-c2ncccn2)cc1C (configuration not stated)	-27%	-7	?	?
Cc1cccc(NC(=O)/C=C/c2ccc([N+](=O)[O-])s2)c1	2.1µM*	0	?	?
COc1cccc(C(=O)N=c2sc3cc(S(C)(=O)=O)ccc3n2C)c1	21%	4	-33%	1.8%
CCN(CCC#N)c1ccc(/C=N/Nc2nc(C)cc(=O)[nH]2)c(C)c1	-16%	-1	-7%	-5.4%
O=c1c2oc3ccccc3c2ncn1Cc1ccccc1F	16%	-4	-33%	1.4%
O=C(CN1CCOCC1)Nc1ccc([N+](=O)[O-])cc1	1%	.	1%	0.0%
COc1ccc(/C=N/n2cnnc2SCCO)cc1OC	28%	3	-52%	5.7%
Cc1nnsc1-c1c(C(=O)Oc2ccccc2)c(C)nn1-c1ccccc1	?	-2	3%	-1.5%
CCOC(=O)C(CCCOc1cccc(CC)c1)C(=O)OCC	-1%	0	1%	-1.5%
CCOCc1nnc(NC(=O)c2c(-c3ccccc3)noc2C)s1	1%	.	3%	-5.3%
O=C(COc1cccc2cccnc12)NNC(=S)Nc1ccccc1	.	10	-19%	.
CCCn1c(C(C)NC(=O)c2ccccc2)nc2ccccc21 (configuration not stated)	0%	-10	0%	1.2%
Cc1nc(SCC(=O)O)c2oc3ccccc3c2n1	-16%	-1	-8%	0.2%

Full records, quoted from the list. Values in the order: Rango release inh, GLA inh pH 4.5, miR-21 FLuc, Rango-impB inh
Record of CCN1C(=O)/C(=C2/Sc3ccccc3N2CC)S/C1=N\c1ncn[nH]1 → ?, 3, -19%, ?
Record of O=c1c2oc3ccccc3c2ncn1Cc1ccccc1F → 16%, -4, -33%, 1.4%

Carrying on:
SMILES	Rango release inh	GLA inh pH 4.5	miR-21 FLuc	Rango-impB inh
CC(=O)Nc1ccc(-n2nnnc2SCC(=O)NCc2cccs2)cc1	21%	3	2%	-3.4%
CCCCn1c(O)c(C=NCCCN(C)C)c(=O)[nH]c1=O	-1%	-5	0%	3.3%
COCCNC(=O)CN1C(=O)NC2(CCCCCC2)C1=O	-7%	5	0%	-1.5%
O=C(CCn1c(=O)sc2ccccc21)Nc1cccnc1	0%	1	-15%	-5.2%
O=C(Nc1ccc2c(c1)nc1n2CCN(C2CCCCC2)C1)c1ccco1	-1%	-2	-12%	?
Cc1ccc(-n2c(SCC(=O)NCC3CCCO3)nc3ccccc3c2=O)cc1C (configuration not stated)	1%	.	.	0.0%
CCN(CC(=O)Nc1ccc(NC(C)=O)cc1)C(=O)c1cccc(S(=O)(=O)N2CCc3ccccc3C2)c1	-11%	.	.	-0.6%
CCCCSc1nc(N)c(C#N)c(-c2cccs2)c1C#N	-9%	-15	0%	-3.1%
Nc1sccc1C(=O)c1ccccc1	-20%	1	-8%	-2.3%
CCN(CC(=O)Nc1ccc(C)c(S(=O)(=O)N(C)C)c1)Cc1ccccc1	12%	.	-11%	0.7%
Cc1ccc(-n2ncc3c(=O)n(-c4ccc(C)c(C)c4)c(C)nc32)cc1	2%	-8	-9%	-1.9%
COc1ccc(CN2CCC(C(=O)c3cccc(Cl)c3)CC2)cc1	16%	.	-2%	3.9%
CN(C)S(=O)(=O)c1cccc(NC(=O)CSc2ncnc3ccccc23)c1	-1%	2	0%	?
Cc1ccc(-c2nnc(CSc3nnc(COc4cccc5ccccc45)n3-c3ccccc3)o2)cc1	-12%	-6	19%	-1.3%
CCOC(=O)c1c(NC(=O)CN2CCCc3ccccc32)sc(C)c1C	12%	-1	-27%	-0.3%
CCc1nnc(SCC(=O)Nc2nnc(C)s2)n1CC1CCCO1 (configuration not stated)	8%	.	-4%	-0.9%
CSc1ccccc1NC(=O)CCc1ccccc1	-2%	5	-26%	-0.1%
Cc1ccccc1NC(=O)CN1C(=O)NC(C)(CCc2ccccc2)C1=O (configuration not stated)	-6%	-14	0%	-0.6%
CCN1CCN(C(=O)CSc2nc(N)cc(N)n2)CC1	-9%	2	0%	0.8%
COc1cc(/C=N/Nc2nc(-c3ccc(S(=O)(=O)N(C)C)cc3)cs2)ccc1O	7%	-6	28%	-0.9%
COCCn1c(=S)[nH]c2ccccc21	3%	10	1%	0.3%
COc1ccc(OC)c(C2=NS(=O)(=O)N(C)C(C(=O)NCc3ccco3)=C2)c1	-6%	.	5%	-1.6%
Cn1c(=O)n(Cc2ccccc2)c(=O)c2c1nc1n2CCN1Cc1ccco1	3%	4	3%	0.6%
Cc1cc(NC(=S)N(Cc2ccc(Cl)cc2)Cc2ccc(C(=O)O)cc2)ccc1Cl	1%	-4[21.1 µM]	7%	1.3%
COCCN1C(=O)/C(=C/c2ccc(N3CCCC3)cc2)SC1=S	?	5	-5%	?

(continued)
SMILES	Rango release inh	GLA inh pH 4.5	miR-21 FLuc	Rango-impB inh
COc1ccc(/C=N/NC2=NCCCCC2)cc1	6%	1	-10%	-0.2%
O=C(COC(=O)c1c(F)cccc1F)Nc1ccc(N2CCCCC2)cc1	4%	.	.	-0.5%
O=C(Nc1ccc(N2CCN(C(=O)c3ccccc3)CC2)cc1)c1ccc(Br)o1	4%	-2	16%	1.2%
CC(=O)Nc1ccc(NC(=O)c2ccc(S(=O)(=O)N(C)c3ccccc3)cc2)cc1	-15%	.	.	-0.3%
Cc1ccc(C2(C)NC(=O)N(CC(=O)N3CCN(S(=O)(=O)c4ccc(Cl)s4)CC3)C2=O)cc1 (configuration not stated)	6%	.	.	-1.2%
O=C(COC(=O)c1ccc2ccccc2c1O)NCc1ccccc1	-21%	.	.	6.5%
CC(=O)c1cccc(NC(=O)Nc2ccc(C(=O)N3CCOCC3)cc2)c1	7%	2	20%	-0.1%
COC(=O)c1cc(Cl)cc2c(CCO)c[nH]c12	-1%	.	.	-1.2%
NC(=O)C1(N2CCCCC2)CCN(C(=O)c2ccccc2)CC1	?	5	-8%	0.4%
COc1ccccc1CNc1nc2ccccc2n1CCN1CCCCC1	11%	-4	1%	-1.4%
Cc1nnc(SCC(=O)Nc2ccc([N+](=O)[O-])cc2)n1C	0%	.	10%	-0.6%
COc1cccc(C2NC(=O)NC(C)=C2C(=O)Nc2ccc(C)cc2)c1OC (configuration not stated)	9%	-2	2%	-3.6%
CCCNS(=O)(=O)c1ccc(C(=O)NCC2CCCO2)cc1 (configuration not stated)	0%	-6	-5%	-1.2%
O=C(Nc1ccccc1)C(Cl)C(=O)c1ccccc1 (configuration not stated)	8%	.	-28%	-1.0%
COc1ccc(-n2ncc3c(=O)n(CC(=O)Nc4ccc5c(c4)OCCO5)cnc32)cc1	8%	.	5%	-4.1%
COc1ccc(-c2nc(-c3ccccc3)nc(N3CCN(C)CC3)c2C#N)cc1	15%	-23	-4%	2.5%
COc1cccc(NC(=O)C2CCN(C(=O)NC3CCCCC3)CC2)c1	-3%	.	7%	-0.1%
COc1ccccc1/C=N/NC(=O)C(=O)NCc1cccnc1	3%	0	1%	6.2%
COc1ccccc1-c1nnc(C2CCN(S(=O)(=O)c3cccc([N+](=O)[O-])c3)CC2)o1	9%	.	-10%	-1.3%

Source: PubChem BioAssay
